V. cholerae motility – Vibrio cholerae motility inhibitors, OD read-out (AID 588778); Vibrio cholerae motility, OD read-out; higher % means a stronger effect; test concentration not given here; primary cut-off and reference of the scale not given here; strong numbers were not always called active; inhibition, %, or IC50 in µg/mL where a hit was titrated; 10,000 tested, under 10 active; in the data active means confirmed in a dose series
V. cholerae motility viability – second read-out of V. cholerae motility, no call of its own (marks repeat the call); inhibition, %; measured here: bacterial viability at 10 ug/mL;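 higher means fewer living bacteria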
Numbers without * were called inactive. An excerpt; count on the stated rates, not on these rows.

Results follow in this order: V. cholerae motility viability, V. cholerae motility
O=C(NCCOc1cccc2cccnc12)C1CC1
 : -3, 0%
COc1ccc(C)cc1NC(=O)C(C)N1CCOCC1 (centres undefined)
 : -3, -6%
CCc1nnc(NC(=O)CSc2nnc(C)s2)s1
 : -4, 7%
Cn1cc(/C=C/c2nc(-c3ccccc3O)n[nH]2)c2ccccc21
 : -1, 2%
COC(=O)c1cc2sc3ccccc3c2s1
 : -7, -8%
O=C(NC(c1ccccc1)c1c(O)c(C(=O)O)cc2ccccc12)c1cccnc1 (centres undefined)
 : -5, 5%
CCOC(=O)c1ccccc1NC(=O)CC1Sc2ccccc2NC1=O (centres undefined)
 : -4, 4%
CCc1nnc(NC(=O)c2ccc3c4c(cccc24)CC3)s1
 : 7, 4%
O=C(Nc1ccc([N+](=O)[O-])cc1)Nc1ccc(Cl)cc1F
 : -1, 11%
CC1(C)Nc2ccccc2N(CCC(=O)N2CCOCC2)C1=O
 : -10, -22%
CN(C)S(=O)(=O)c1cc(C(=O)O)c(NC2CCCCC2)cc1Cl
 : 4, 14%
CCN(CC)C(=O)c1sc(NC(=S)Nc2nc3c(s2)CC(C)CC3)c(C(=O)OC)c1C (centres undefined)
 : 2, 7%
COC(=O)c1ccccc1NC(=O)c1ccc(NS(=O)(=O)c2cccc3cccnc23)cc1
 : 3, 1%
O=C(Nc1ccc(S(=O)(=O)Nc2ccccn2)cc1)C1(c2ccccc2)CCOCC1
 : 9, 15%
O=C(CC1NCCNC1=O)Nc1ccc2c(c1)OCCO2 (centres undefined)
 : 2, 2%
Cn1nccc1C(=O)n1cc([N+](=O)[O-])cn1
 : 34, 7%
O=S(=O)(NCc1ccc2c(c1)OCO2)c1ccc(Cl)c(Cl)c1Cl
 : 20, 14%
CCN(CC)CC#CCC(c1ccccc1)c1ccc(OC)cc1 (centres undefined)
 : -4, 6%
Cc1nnc(NC(=O)CN2C(=O)c3cccc([N+](=O)[O-])c3C2=O)s1
 : -3, -6%
CCOC(=O)Cc1csc(NC(=O)CSc2nnc(CSc3nc(C)cc(C)n3)o2)n1
 : -1, 1%

New compounds follow
Results follow in this order: V. cholerae motility viability, V. cholerae motility
Oc1ccc(O)c(Sc2nnnn2-c2ccccc2)c1
 : 4, 17%
CN1CCN(C(=S)c2ccc(F)cc2)CC1
 : -5, -1%
CC(=O)C1=C(c2ccccc2)NC(=O)NC1c1cccs1 (centres undefined)
 : -3, -6%
O=C(CSc1ccccc1)Nc1cccc(C(=O)Nc2nccs2)c1
 : 0, 13%
Cc1ccc(C2=NN=C(NC(=O)c3ccc(Cl)cc3)SC2)cc1
 : 2, -7%
Cc1onc(-c2ccccc2)c1C(=O)NCCc1ccc(F)cc1
 : -9, -7%
COc1nc(NCc2ccc(Cl)cc2)nc(OC)n1
 : -3, -3%
O=C(Oc1c(Cl)cc(Cl)c2cccnc12)c1cccc([N+](=O)[O-])c1
 : 96, 93%
Cc1sc2ncnc(Oc3ccc(F)c(Cl)c3)c2c1C
 : -4, -14%
CCOc1cc(CO)cc(I)c1OC(C)C
 : 1, -1%
CN(C)Cc1c(N)cccc1O
 : 33, 10%
COc1ccc2c(C)nc(Nc3ncc(O)[nH]3)nc2c1
 : -10, 1%
CCOC(=O)Cn1nc(C(F)(F)F)c(Cl)c1C
 : -6, -10%
O=[N+]([O-])c1ccc(N2CCN(S(=O)(=O)Cc3ccccc3)CC2)cc1SCc1ccco1
 : 27, 4%
Clc1ccc(OCCOc2ccc3c(c2)CCC3)c2ncccc12
 : -4, -7%
Clc1ccc(-c2nc(Nc3ccc4c(c3)OCCO4)c3ccccc3n2)c(Cl)c1
 : -1, 4%
O=c1[nH]c(/C=C\c2cc3ccccc3oc2=O)c([N+](=O)[O-])c(=O)[nH]1
 : 1, 2%
O=C(Nc1cccc(S(=O)(=O)c2cccc(NC(=O)c3ccco3)c2)c1)c1ccco1
 : -7, 1%
O=C(Nc1nc(-c2ccccc2)ns1)c1ccc2ncsc2c1
 : -1, 4%
COc1ccc2c(c1)C1(Nc3ccccc3-c3nc4ccccc4n31)C(=O)N2C (centres undefined)
 : 4, -4%

Reformatted: results already given
| Structure | V. cholerae motility viability | V. cholerae motility |
| --- | --- | --- |
| O=C(CSc1ccccc1)Nc1cccc(C(=O)Nc2nccs2)c1 | 0 | 13% |
| Cc1ccc(C2=NN=C(NC(=O)c3ccc(Cl)cc3)SC2)cc1 | 2 | -7% |
| Cc1onc(-c2ccccc2)c1C(=O)NCCc1ccc(F)cc1 | -9 | -7% |
| COc1nc(NCc2ccc(Cl)cc2)nc(OC)n1 | -3 | -3% |
| O=C(Oc1c(Cl)cc(Cl)c2cccnc12)c1cccc([N+](=O)[O-])c1 | 96 | 93% |
| Cc1sc2ncnc(Oc3ccc(F)c(Cl)c3)c2c1C | -4 | -14% |
| CCOc1cc(CO)cc(I)c1OC(C)C | 1 | -1% |
| CN(C)Cc1c(N)cccc1O | 33 | 10% |
| COc1ccc2c(C)nc(Nc3ncc(O)[nH]3)nc2c1 | -10 | 1% |
| CCOC(=O)Cn1nc(C(F)(F)F)c(Cl)c1C | -6 | -10% |
| O=[N+]([O-])c1ccc(N2CCN(S(=O)(=O)Cc3ccccc3)CC2)cc1SCc1ccco1 | 27 | 4% |
| Clc1ccc(OCCOc2ccc3c(c2)CCC3)c2ncccc12 | -4 | -7% |
| Clc1ccc(-c2nc(Nc3ccc4c(c3)OCCO4)c3ccccc3n2)c(Cl)c1 | -1 | 4% |
| O=c1[nH]c(/C=C\c2cc3ccccc3oc2=O)c([N+](=O)[O-])c(=O)[nH]1 | 1 | 2% |
| O=C(Nc1cccc(S(=O)(=O)c2cccc(NC(=O)c3ccco3)c2)c1)c1ccco1 | -7 | 1% |
| O=C(Nc1nc(-c2ccccc2)ns1)c1ccc2ncsc2c1 | -1 | 4% |
| COc1ccc2c(c1)C1(Nc3ccccc3-c3nc4ccccc4n31)C(=O)N2C (centres undefined) | 4 | -4% |

(cont.)
Results follow in this order: V. cholerae motility viability, V. cholerae motility
C=C(C)c1cccc(C(C)(C)NC(=O)N2CCN(c3ccccn3)CC2)c1
 : -4, -14%
COc1ccc(CCNC(=S)NCc2cccs2)cc1OC
 : 8, 13%
COc1cc([N+](=O)[O-])ccc1NC(=S)NCc1ccc(-n2cccn2)cc1
 : 8, -6%
CC(C)(C)CC(=O)O/N=C(\N)c1ccccn1
 : -1, 7%
CN(C)c1nc(C(=O)Nc2ccccc2)nc(N(C)C)n1
 : 4, 8%
COc1cc(OC)c(NC(=O)CC(=O)c2ccccc2)cc1Cl
 : -1, -6%
O=[N+]([O-])c1ccccc1S(=O)(=O)Nc1ccccc1Sc1ccccc1
 : -4, 2%
O=C(CNC(=O)c1cccs1)NCC(=O)OCc1c(F)cccc1Cl
 : -2, 18%
CS(=O)(=O)N(CC(=O)NCc1ccccn1)c1cccc([N+](=O)[O-])c1
 : -1, 8%
S=c1[nH]nc(CSc2nc3ccccc3[nH]2)n1-c1ccccc1
 : -8, -9%
CCOc1cc(S(=O)(=O)N2CCN=C2Cc2ccccc2)ccc1F
 : 6, 16%
O=C(CSc1n[nH]c(-c2ccc(Cl)cc2Cl)n1)Nc1ccccc1F
 : 8, 6%
Cc1cc(C)nc(N=C2Nc3cccc4cccc(c34)N2)n1
 : 0, 12%
COc1ccc(Cl)cc1NC(=O)CSc1nc2sccc2c(=O)[nH]1
 : -6, -16%
CCOC(=O)N1CCN(C(=S)Nc2ccc(S(N)(=O)=O)cc2)CC1
 : -5, -7%
O=C(c1ccc(N2CCOCC2)c([N+](=O)[O-])c1)N(Cc1ccccc1)c1ccccn1
 : -1, -3%
N/C(=N\OC(=O)Nc1ccc(Cl)cc1)c1ccc(Cl)cc1
 : 6, 3%
COc1ccc(CCNC(=O)C(=O)NCCN2CCOCC2)cc1OC
 : 33, 11%
CCCCc1ccc(S(N)(=O)=O)cc1
 : 33, 96%
OC1/C(=C/c2ccc(-c3ccc(Cl)cc3)o2)N2CCC1CC2 (centres undefined)
 : 6, 15%

Other structures follow.
Results follow in this order: V. cholerae motility viability, V. cholerae motility
c1ccc(-c2nnc3n2N=C(c2c[nH]c4ccccc24)CS3)cc1
 : -1, 10%
CC(C)CC(=O)Nc1ccc(I)cc1C(F)(F)F
 : 20, 14%
CCc1ccccc1NC(=S)N1CCNC(=O)C1CC(=O)OC (centres undefined)
 : 2, 2%
CCOc1cccc(OCCCCNCCN)c1
 : -6, -5%
CC(=O)Oc1c(C)cc2sc3ccccc3c(=O)c2c1C
 : -18, 3%
O=C(O)C(Cc1c[nH]c2ccccc12)NC(=O)C12CC3CC(CC(C3)C1)C2 (centres undefined)
 : -1, 5%
O=C(CSc1ncc(-c2ccccc2)nn1)Nc1nc2c(s1)CCCC2
 : -2, -1%
Cc1occc1C(=O)NN1C(=O)c2ccccc2C1=O
 : -1, 12%
CCCc1cc(=O)[nH]c(Nc2ccc3c(c2)OCCO3)n1
 : -8, -14%
O=C(CS(=O)(=O)Cc1ccccc1)N1CCN(Cc2ccc3c(c2)OCO3)CC1
 : 3, 13%
O=C(NCCc1ccncc1)NC1CCCCC1
 : -5, 1%
COC(=O)c1ccc(C(=O)OC)c(NC(=S)N2CCOCC2)c1
 : 2, 10%
CCOC(=O)c1c(NC(=O)CSc2nc(C)c3c(n2)CCCC3)sc(C(C)=O)c1C
 : -6, -3%
O=C(O)CCCOc1cccc([N+](=O)[O-])c1
 : -4, -14%
CN1CCc2nc3sc4c(=O)c(=O)[nH][nH]c4c3cc2C1
 : -4, 2%
O=C(NC(/C=C/c1ccccc1)c1cc([N+](=O)[O-])c2cccnc2c1O)C1CCCCC1 (centres undefined)
 : -6, 2%
CC(=O)Nc1ccccc1OC(=O)Oc1ccccc1
 : -1, -5%
O=c1c2ccccc2[nH]c2ccc(I)cc12
 : 6, 26%
O=C(c1ccc2c(=O)n(CCC3=CCCCC3)c(=S)[nH]c2c1)N1CCc2ccccc21
 : -4, -6%
CC(C)(C)c1ccc(-c2cn[nH]c2N)cc1
 : 5, 9%

(next part)
Results follow in this order: V. cholerae motility viability, V. cholerae motility
COc1cc(C(=O)Oc2ccc3[nH]cc(CCN4C(=O)c5ccccc5C4=O)c3c2)cc(OC)c1OC
 : -6, -19%
Cc1cc(=O)oc2cc(NC(=S)N3CCN(S(=O)(=O)c4ccc(Cl)cc4)CC3)ccc12
 : -4, 0%
COc1ccc(-c2cc(C(F)(F)F)nc(SCCC(=O)Nc3cn(C)nc3C)n2)cc1
 : 2, 13%
CCOC(=O)C1CCN(S(=O)(=O)c2cccc(-c3cn4cccnc4n3)c2)CC1
 : -3, 6%
CC(C)(C)c1csc(NC(=O)C(CC(=O)O)NCc2ccco2)n1 (centres undefined)
 : -4, -3%
CC1(C)CC2(CCO1)OC(=O)CC2C#N (centres undefined)
 : -1, 18%
O=c1[nH]cnc2ccc(Br)cc12
 : 0, 9%
COc1ccc2[nH]cc(CCNC(=O)c3ccc4ccccc4n3)c2c1
 : 3, 8%
Cc1cc(=O)oc2cc(OCC3CC(c4ccccc4)=NO3)ccc12 (centres undefined)
 : -2, 14%
O=C(O)C(Nc1nc(C(F)(F)F)nc2ccccc12)c1ccccc1 (centres undefined)
 : -4, 10%
NC(N)=NC(N)=Nc1ccc2ccccc2c1
 : 4, 16%
CSc1ncc(Cl)c(C(=O)Nc2nnc(SC/C=C/c3ccccc3)s2)n1
 : 6, 18%
CCOC(=O)Nc1cc(=O)c2ccccc2o1
 : 5, 30%
CCOc1ccc2nc(NS(C)(=O)=O)sc2c1
 : -2, 2%
O=C(Nc1ccc2[nH]c(=O)[nH]c2c1)C(F)(F)F
 : -5, -12%
O=C(CN1CCOCC1)Nc1ccc(Br)cn1
 : 21, 10%
Cc1ccc2nsnc2c1NC(=O)c1cc(I)ccc1Cl
 : -4, -15%
CCOc1ccccc1NC(=O)Nc1cccc([N+](=O)[O-])c1C
 : 0, -5%
Cc1cc(N2C(=O)CC(Cc3ccc(Cl)cc3)C2=O)no1 (centres undefined)
 : -7, 2%
CC(C)CC(=O)NC(NC(=S)Nc1cccc(Br)c1)C(Cl)(Cl)Cl (centres undefined)
 : -9, -2%

The results go on.
Results follow in this order: V. cholerae motility viability, V. cholerae motility
CC(NC(=O)c1ccco1)c1ccc(I)cc1 (centres undefined)
 : 23, 16%
CCc1ccccc1NC(=O)CCCC(=O)OCC(=O)c1cccc(OC)c1
 : -4, 3%
CS(=O)(=O)Nc1ccc(C(=O)Nc2cccnc2)cc1
 : 1, 6%
O=[N+]([O-])c1cccc(Cn2cc(Br)cn2)c1
 : 4, 14%
CCOc1ccc(C(F)(F)F)cc1NC(=O)CSc1ccc(C(F)(F)F)cc1[N+](=O)[O-]
 : -4, 0%
O=C(NCc1ccc(-c2nc3ccccc3s2)cc1)c1ccc(Br)o1
 : 10, 2%
CN(c1cccc(NC(=O)CSCc2ccccc2Br)c1)S(C)(=O)=O
 : -1, -4%
COc1ccc(S(=O)(=O)N2CCN(C(=O)c3cccs3)CC2)cc1OC
 : 4, 18%
CCOC(=O)c1cc(CC)sc1N1C(=O)CC(Sc2ncccc2C(=O)O)C1=O (centres undefined)
 : -4, -3%
CCCCNS(=O)(=O)c1cccc2c(N(C)C)cccc12
 : -2, 24%
COc1ccc(C2C=C(c3ccc(F)cc3)NC(=S)N2)cc1OC (centres undefined)
 : -6, -8%
O=S(=O)(Nc1ccccc1Sc1ccccc1)c1cccs1
 : -1, 7%
Cc1nc(C)n(C(=O)c2cccs2)n1
 : 12, 7%
FC(F)(F)c1ccc(Oc2cccc(C(F)(F)F)c2)nc1
 : 5, -3%
Cc1ccc(S(=O)(=O)c2nc(-c3ccccc3)oc2SCC(=O)c2ccc(Cl)cc2)cc1
 : -2, -1%
OCCNCCOCCOc1ccccc1F
 : -4, -2%
Cc1cc([N+](=O)[O-])ccc1N=C1N=C(N)c2ccccc21
 : 4, -2%
CC1=Nc2ccccc2N=C(NC(=O)CSc2nnnn2-c2ccccc2)C1c1ccccc1 (centres undefined)
 : 2, 8%
Cn1cnnc1SCC(=O)n1c2ccccc2c2ccccc21
 : -8, -10%
O=c1oc2c3ccccc3oc(=O)c2c2ccccc12
 : -6, -1%
CN(C1=NC(=O)/C(=C\c2ccccc2Cl)S1)c1ccc(O)cc1
 : -5, -11%
CC1(C)CC(N)CC(C)(C)N1
 : 3, 3%

Screening data as filed in PubChem BioAssay.
